MgrA-DNA mod = S. aureus MgrA activity modulators, primary screen, biochemical, S. aureus Newman, fluorescence polarization; MgrA-DNA binding; inhibition, %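 (about 10 µg/mL by stock and volumes)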; hit rate 0.13% among 84,000;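 active means above 50% in either of two replicates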;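 further: 0% = protein plus DNA without compound and 100% = DNA alone without protein; higher means less MgrA bound to DNA so lower polarization; one replicate is shown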
S aureus helic = inhibitors of S. aureus replicative helicase, primary screen, biochemical, fluorescence unwinding readout; purified S. aureus helicase, fluorescence unwinding assay; about half of the hits fall short of the stated cut; replicative DNA helicase (DnaC/DnaB), Staphylococcus aureus; inhibition, %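 (tested at about 80 µM)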; hit rate 0.05% among 120,000;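 active means both duplicates at 50% or more, or one of them with a favoured structure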;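 further: 0% = mean of negative control wells and 100% = mean of positive control wells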
* marks the source's active call; other numbers are inactive results; / = no result given; & = joins results of further samples. A portion of the library (hit frequency here may not be typical).

Molecule | MgrA-DNA mod | S aureus helic
O=C(Cn1cnc(S(=O)(=O)N2CCCCC2)c1)Nc1ccccc1 | / | 11
CSc1nc(C)nc(Nc2ccccc2)c1C#N | -2.2 | /
CCN(CC)S(=O)(=O)c1ccc(NC(=O)Cn2cnc3c2c(=O)n(C)c(=O)n3C)cc1 | / | 9
O=P(C1=C(N2CCOCC2)/C(=C\c2ccccc2)CC1)(N1CCOCC1)N1CCOCC1 | / | 7
Cc1ccc(CNC(=O)c2cccc(Nc3nc4ccccc4n4cnnc34)c2)cc1 | 2.7 | -11
Nc1nnc(Sc2cc3c(cc2[N+](=O)[O-])C(=O)NC3=O)s1 | 11 | /
CSc1ncccc1C(=O)OCc1ccccc1F | / | 2
Cc1[nH]nc(-c2ccc(O)cc2O)c1Oc1ccccc1 | / | 21
Cc1cccc(NC(=O)Cn2cnc3c(oc4ccccc43)c2=O)c1C | / | 16
O=c1[nH]cnc2c1oc1ccccc12 | / | 0
COc1ccc(C2CC(=O)NC(NC(=O)CN3C(=O)c4ccccc4C3=O)=N2)cc1 (stereo not drawn) | / | -7
Cc1cc(I)c[nH]c1=O | / | -4
CCn1c(-c2ccc3c(c2)OCCO3)cnc1SCC(=O)c1ccc(CNC(C)=O)s1 | / | -5
CCCn1c(OC)nc2c1c(=O)n(C)c(=O)n2C | / | 8
N#CCCCSc1nnc(Cc2ccc3c(c2)OCO3)o1 | 1.6 | -3
CCC(=O)Oc1cc2c(C)cc(=O)oc2cc1Cl | -2.1 | 4
CC(C)CC(=O)Nc1sc2c(c1C#N)CCCCC2 | -0.3 | 13
CCOc1ccc(C(=O)N2CC(=O)Nc3ccc(C)cc3C2c2ccccc2)cc1 (stereo not drawn) | 3.9 | 2
O=C(NCc1cccnc1)C1c2ccccc2C(=O)N1C1CCCCCCC1 (stereo not drawn) | / | -33
Cc1cc(C)nc(SCNC(=O)c2ccccc2)n1 | / | 19

3 entries already listed, sorted by the number in MgrA-DNA mod, highest first:
Molecule | MgrA-DNA mod | S aureus helic
Nc1nnc(Sc2cc3c(cc2[N+](=O)[O-])C(=O)NC3=O)s1 | 11 | /
CCOc1ccc(C(=O)N2CC(=O)Nc3ccc(C)cc3C2c2ccccc2)cc1 (stereo not drawn) | 3.9 | 2
CSc1nc(C)nc(Nc2ccccc2)c1C#N | -2.2 | /

Later entries
Molecule | MgrA-DNA mod | S aureus helic
Cc1cc(C(=O)O)c(CSc2ncn[nH]2)o1 | 12 | 14
O=C1C=CC2(C=C1)CC1(CCCCC1)N=C2SCc1ccccc1 | 2.5 | -8
Cc1[nH]c(C(=O)NN)c(C)c1C(=O)NC1CCCCC1 | / | -16
CCN(CC)C(=O)CSc1nc2c(c(=O)n(C)c(=O)n2C)n1CC | 2.1 | -11
OC(CNCC1CCCO1)COC(c1ccc(Cl)cc1)c1ccc(Cl)cc1 (stereo not drawn) | -1.8 | 8
COC(=O)CCn1c(=O)c2cccn2c2ccc(F)cc21 | / | 9
O=C(c1ccc(F)cc1)c1ccc([N+](=O)[O-])cc1 | -2.0 | /
CC(C)=NNC(=O)CN(C1=NS(=O)(=O)c2ccccc21)c1ccccc1 | / | -27
N#CC1=C(N)C(C#N)(C#N)C2(C(=O)Nc3ccccc32)C2CCCC=C12 (stereo not drawn) | 4.9 | 14
Cc1cc(C)c(C#N)c(SCc2nc(-c3ccc(OC(F)(F)F)cc3)no2)n1 | 0.6 | /
CN1CSC2=C(C#N)C(c3ccccc3)CC(=O)N2C1 (stereo not drawn) | 0.1 | 8
CCOC(=O)c1sc(/N=C/N(C)C)nc1C | / | 2
CC1CCCCC1NC(=O)c1cc2c(s1)CS(=O)(=O)C2 (stereo not drawn) | / | 4
CS(=O)(=O)c1ccc(Cl)c(NC(=O)c2cccnc2)c1 | / | -20
CC1CCCC(NC(=O)COC(=O)c2ccc3ccccc3n2)C1C (stereo not drawn) | 0.4 | -54
O=C(O)/C=C/C(=O)NNc1nc2cc(S(=O)(=O)N3CCOCC3)ccc2o1 | / | 5
COC(=O)C(F)(F)Sc1c(C)[nH]c2ccccc12 | -0.5 | 15
CN1CN=C(SCc2ccccc2Cl)NC1 | 0.0 | /
O=C(C(c1ccccc1)c1ccccc1)N(Cc1ccco1)Cc1cccs1 | / | -7
CC(=O)Nc1ccc(S(=O)(=O)N2CCCC2C(=O)O)cc1 (stereo not drawn) | -2.6 | 6
CC1CCCCC1N(C)C1CCN(CCNC(=O)/C=C/c2ccccc2)CC1 (stereo not drawn) | -0.1 | 16
N=C(N)SCc1cccc(CSC(=N)N)c1F | 0.1 | /
O=C(Cn1c2ccccc2c2cn[nH]c(=O)c21)NCc1ccco1 | / | -3
O=C(Nc1cccc(Cl)c1)NC1(C(=O)Nc2ccc3c(c2)OCCO3)CCCCC1 | -0.3 | 20
Cc1cc(=O)n2ncnc2n1COCCO | 0.8 | /
O=C(NCCc1ccc(Cl)cc1)c1ccc2c(Cl)c3c(nc2c1)CCCC3 | 0.8 | 2
O=C(NCCN1CCN(c2nccc(C(F)(F)F)n2)CC1)NC1CCCCC1 | 0.1 | /
O=c1sc2ccccc2n1CCOc1ccccc1 | 0.4 | -13
Cc1ccccc1NC(=O)CN1C(=S)NC(C)(C)CC1C (stereo not drawn) | -0.8 | 10
COC(=O)CSc1nc2cc3c(cc2cc1C#N)OCO3 | 3.9 | -11
COC(=O)c1ccc(S(=O)(=O)NCc2cccc(OC)c2)n1C | -0.8 | 9
N#Cc1ccsc1/N=C/c1ccccc1 | 3.5 | /
Cc1nn(Cc2ccc(F)cc2)c(C)c1NC(=O)c1cnn2c1NC(c1ccco1)CC2C(F)(F)F (stereo not drawn) | 3.4 | 1
N#Cc1ccc(CN2C(=O)c3ccccc3C2=O)cc1 | / | 7
COc1ccc(C2N=C(c3ccccc3C)NO2)cc1O (stereo not drawn) | / | -22
CCOC(=O)N1CCC(Nc2cc(C)c(C#N)c3nc4ccccc4n23)CC1 | -1.2 | -1
CCCC1CCC(C(=O)n2nc(N)c3cc4ccc(OC)cc4nc32)CC1 (stereo not drawn) | 4.3 | 15
CC(C)CCn1c(CO)cnc1S(=O)(=O)C(C)C | 1.0 | 12
Cc1cc(NC(=O)COC(Cc2ccccc2)C(F)(F)F)no1 (stereo not drawn) | -2.4 | /
CCOc1ccc(N=CC2=C(O)CNC2=O)cc1 | 1.6 | 10
CCCCSc1ncn[nH]1 | / | -15
Cc1ccc(C(=O)Cc2cc3ccccc3oc2=O)cc1 | 0.9 | 7
Cc1cc(SCC(=O)N2CCCCC2)nc2ccccc12 | 0.4 | 15
CCOC(=O)c1cc(-c2ccc3c(c2)OCO3)nn1-c1cccc(C(=O)O)c1 | / | 8
Cc1cc(C)c2c(n1)sc1c(=O)n(CC(=O)O)cnc12 | / | -2
COCCCCCCCCCCCC(=O)O | 4.2 | /
Cc1ccccc1C(=O)NC(=S)Nc1ccc(-c2nc3ccccc3o2)cc1 | 3.3 | 6
CCc1ccc(-c2nn(Cc3ccccc3)cc2C(=O)N2CCN(CCN3CCCC3)CC2)cc1 | / | -13
CCC(=O)N1CCN(c2ccc(NCc3ccccc3)cc2)CC1 | 2.0 | 0
CCn1cc(C(=O)c2ccccc2O)cc1-c1nc2cc(Cl)ccc2c(=O)[nH]1 | / | 5
CC1CCCC(C)N1C(=O)COC(=O)c1cc(=O)[nH]c2ccccc12 (stereo not drawn) | / | 10
O=C(Nc1cccc(Br)c1)c1cccc2c1C(=O)c1ccccc1-2 | 0.9 | 5
COc1ccc(Cc2noc(N)n2)cc1 | -2.1 | /
N#CCC(=O)NC(=O)NC12CC3CC(CC(C3)C1)C2 | 3.1 | /
CC(NC(=O)Cc1cccs1)C(c1cccs1)N1CCOCC1 (stereo not drawn) | / | 12
O=C(O)/C=C/C(=O)Nc1ccc(N2CCCCC2)cc1 | / | 8
Cc1cc(C(=O)CSc2nccn2Cc2ccccc2)c(C)n1-c1ccc(S(N)(=O)=O)cc1 | / | 14
O=C(O)CCCN1C(=O)C(=O)/C(=C(/O)c2ccccc2)C1/C=C/c1ccccc1 (stereo not drawn) | 11 | 4
CC(=O)Nc1cc(C(=O)NCCN(C)C)ccc1Sc1ccc(C)cc1 | 3.9 | 7
O=C(NC1CCCC1)C(c1ccccn1)N(C(=O)c1ccc2c(c1)OCCO2)c1ccccc1 (stereo not drawn) | 1.4 | -3

Following part:
Molecule | MgrA-DNA mod | S aureus helic
Cn1c(SCC(=O)N2CCCC2)nnc1-c1c[nH]c2ccccc12 | / | 14&7
COc1oc(-c2ccccc2)nc1C(F)(F)F | -1.9 | 25
Cc1ccccc1CN1C(=O)C(O)(CC(=O)c2ccc(N)cc2)c2ccccc21 (stereo not drawn) | / | 10
COc1cc2c(cc1OC)C(c1cc3cc4c(cc3[nH]c1=O)OCO4)N(C(=O)c1ccco1)CC2 (stereo not drawn) | -1.5 | 9
O=C(Cn1cc(S(=O)(=O)Cc2ccccc2)c2ccccc21)N1CCCC1 | / | -29
CCC(=O)Nc1ccccc1-c1ccccc1NC(=O)CC | 2.2 | -5
O=c1c(-c2ccccc2)nc(-c2ccccc2)cn1O | 3.8 | /
COc1ccc(-c2nc(SCC(=O)N3CCC(c4ccccc4)=N3)n[nH]2)cc1 | / | -8
COc1ccc(C2C(C(=O)NCCC3=CCCCC3)c3ccccc3C(=O)N2C)cc1 (stereo not drawn) | 4.3 | 8
C/C(N)=C(/C#N)C(=O)CSCc1ccccc1C | / | 8
O=C(CSc1nn(-c2ccccc2)c(=S)s1)Nc1nccs1 | / | 7
Cc1ccc(C(=O)N(C)Cc2ccccc2)cc1 | 2.1 | 6
CC(C)(C)NC[C@H](O)COc1cccc2c1CCCC2=O | -0.4 | /
O=C(Oc1ccc(N(C(=O)c2ccccc2)S(=O)(=O)c2cccs2)cc1)c1ccccc1 | -2.9 | -3
CCn1cc(C(=O)OCC(=O)OC2CC(C)CCC2C(C)C)c(=O)c2ccc(C)nc21 (stereo not drawn) | / | 0
CC(NC(=O)Cn1c(-c2cccs2)cc2ccccc21)c1ccccc1 (stereo not drawn) | / | -13
COC(=O)c1ccc(NC(=O)c2ccc(C)cc2)cc1 | / | 23
Cc1nc2c(c(C)nn2C)c(C)c1CCC(=O)NCCc1ccccc1 | / | 11
Cc1oc(C(=O)O)cc(=O)c1C | -3.7 | /
CN1C(C(=O)N2CCN(Cc3ccccc3)CC2)=CC(c2ccc(F)cc2)=NS1(=O)=O | -0.4 | -2
O=C(/C=C/c1ccc(OCc2ccccc2)cc1)N1CCOCC1 | 0.1 | /
Cc1nc(N2CCOCC2)c2sc(=S)n(-c3ccccc3)c2n1 | -0.6 | /
N#C/C(C(=O)N1CCCCC1)=C1/Nc2ccccc2S1 | / | 13
COc1ccc(NCC(=O)Nc2ccc(F)cc2)cc1 | 5.4 | 13
COc1ccc(-n2nnc3c(SCC(=O)N4CCc5ccccc54)ncnc32)cc1 | 0.7 | 0
c1ccc2c(c1)CC(CN1CCCCC1)O2 (stereo not drawn) | 1.0 | -6
CCOc1ccc(S(=O)(=O)N(CC)CC(=O)NCc2cccnc2)cc1C | -1.9 | 1
O=C(Nc1ccc2c(c1)OCCO2)Nc1cccs1 | 1.8 | /
CC(C)n1c(CCC(=O)O)ccc1-c1ccc(F)cc1 | / | -16
NS(=O)(=O)c1ccc(NC(=O)CSCc2ccccc2)cc1 | / | -8
O=C1CCCC/C1=C\Nc1nc(-c2ccccc2)cs1 | -1.4 | -2
CCC(=O)c1c[nH]c(C(=O)NCc2ccco2)c1 | 0.4 | /
CC(=O)Nc1ccc(OCC(=O)Nc2cc(F)ccc2C)cc1 | / | -20
O=C(CCCCN1CCCCC1)c1ccccc1 | -1.7 | 1
Cc1ccc(S(=O)(=O)N2CCCCCC2)cc1C | 2.1 | -5
CCOC(=O)N1CCN(C(=O)CC2C(=O)N(Cc3ccccc3)C(C)c3nc4ccccc4n32)CC1 (stereo not drawn) | / | 6
CCOC(=O)c1cc(-c2ccc(C#N)cc2)nc2c1c(C)nn2CCC#N | / | 4
O=C(Nc1ccc2nc(C3CC3)n(Cc3ccccc3)c(=O)c2c1)C1CC1 | -0.5 | 2
CN1c2ccccc2Oc2nnc(NCc3ccccc3)cc21 | 0.6 | 2
CS(=O)(=O)/C(C#N)=C\c1ccc(Cl)s1 | 3.5 | /
NC(=O)CNC(=O)c1cccc(Cl)c1 | -1.9 | 12
Cc1ccc2c(=O)c(CN3CCCC3)c(C)[nH]c2c1C | -1.4 | 5
O=c1oc2ccccc2n1-c1nc2ccccc2o1 | / | -2
COc1ccccc1NC(=O)C1=C(C)NC(SCC(=O)c2ccccc2)=C(C#N)C1c1cccs1 (stereo not drawn) | / | 3
COC(=O)C1=C(C)N(c2ccc(OC)c(OC)c2)C(=O)/C1=C\c1cc(C)n(-c2ccc(F)cc2)c1C | 2.8 | -5
Cc1cccc(C)c1NC(=O)CSc1ccc(C(F)(F)F)cc1[N+](=O)[O-] | 0.6 | /
CC(C)(C)C(=O)Nc1nccs1 | 3.7 | -9
CC1CCC(C(C)C)/C(=N/NC(=O)CC#N)C1 (stereo not drawn) | -0.6 | /
CCOC(=O)c1ccc(N=Cc2ccc(O)c(OC)c2)cc1 | 4.5 | 3

Part of the list above, as labelled records:
Cc1[nH]nc(-c2ccc(O)cc2O)c1Oc1ccccc1
  MgrA-DNA mod: /	S aureus helic: 21

Cc1cccc(NC(=O)Cn2cnc3c(oc4ccccc43)c2=O)c1C
  MgrA-DNA mod: /	S aureus helic: 16

O=c1[nH]cnc2c1oc1ccccc12
  MgrA-DNA mod: /	S aureus helic: 0

COc1ccc(C2CC(=O)NC(NC(=O)CN3C(=O)c4ccccc4C3=O)=N2)cc1 (stereo not drawn)
  MgrA-DNA mod: /	S aureus helic: -7

Screening results (PubChem)
